High-throughput results: PubChem BioAssay, National Center for Advancing Translational Sciences (NCATS)
TRPV1 potentiator: enhances activation of the human vanilloid receptor TRPV1; Q8NER1; TRPV1-expressing cells, Fluo-8 calcium influx, capsaicin EC20 potentiation; host cell line not named in the record; control for the full effect not named in the record; potentiation, % at 8.33 µM; 320,000 tested, 0.02% active; AID 540277; active means potentiation above 80%; inconclusive means 30% to 80%; inactive means below 30%; note: 0% is about no effect
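TRPV1-expressing cells were cultured overnight at 35.5C and loaded with Fluo-8 calcium dye for 40 to 90 min at room temperature. After a 10 s baseline, compound was added and calcium influx was read kinetically for 3 min (ex 480/em 520 nm).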
gsp ag: activates gsp, the McCune-Albright syndrome mutation | gsp mutant cells, cAMP HTRF, 30 min; control for the full effect not named in the record | Potency, µM (series often up to 76.9 µM), without a hit: top-dose activation (cAMP increase), most hits filed as activators | 340,000 tested, 0.13% active | AID 624287; active = well fitted activation curve with a large enough effect; inconclusive = small, poorly fitted or top-dose-only effect, or another doubt; inactive = no such curve, though single readings can be large or run the other way; cell line not stated here;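 note: phosphodiesterase inhibitor Ro 20-1724 added with compounds to block cAMP breakdown; potency is the fitted concentration of half-maximal effect; nearly all actives have a fitted effect of over 60% in size; about a fifth of the inactives were tested at one dose only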
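Cells in DMEM/10% FBS with G418 were pretreated with compounds in DMSO plus […] (300 uM stock) for 30 min at 37C. cAMP was measured by HTRF (cAMP-d2 plus anti-cAMP antibody-K) after 30 min at room temperature.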
ClpP mod: qHTS Assay for Activators of ClpP; purified B. subtilis ClpP, FRET peptide cleavage, 20 min; Potency, µM (top dose mostly 57.5 µM), for the others: top-dose activity change, negative = active; 340,000 tested, 1.9% active; active = well fitted falling curve with a large enough effect; inconclusive = small, poorly fitted or top-dose-only effect; inactive = no such curve, though single readings can be large or run the other way; note: potency is the fitted concentration of half-maximal effect; the source files actives as falling curves though it sought activators and does not explain the sign; nearly all actives have a fitted effect of over 65% in size; many hits overshoot -100%
Target sequence (P80244 whole entry, looked up): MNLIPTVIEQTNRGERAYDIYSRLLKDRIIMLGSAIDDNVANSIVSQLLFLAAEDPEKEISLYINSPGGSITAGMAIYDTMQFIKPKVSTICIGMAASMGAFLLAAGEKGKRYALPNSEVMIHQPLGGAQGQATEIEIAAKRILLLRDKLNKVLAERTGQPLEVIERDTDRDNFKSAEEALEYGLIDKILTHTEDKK
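FRET quenching reversal measured ClpP activation: 10 microg/mL B. subtilis ClpP at pH 8 with the FRET-FV decapeptide, read at 430 nm after 320 nm excitation. The 20-min minus 0-min signal was scaled between DMSO/no-enzyme wells and ADEP (5.8 microM final).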
Menin MLL FP FL: inhibitors of human menin-MLL interaction, wild-type MLL peptide | 290,000 tested, under 10 active | AID 1766 | Fluorescence polarization, fluorescein-MLL peptide displacement from menin | FP activity change, % at 61.4 µM; inconclusive = falling polarisation curve, or a change in total fluorescence; inactive = total fluorescence flat and polarisation flat or rising; no compound was filed as active; the % refers to the polarisation; negative = inhibition;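 note: % of control where 0% means no effect; inhibitors lower the polarisation; unlabelled MLL peptide was the positive control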
gsp antag: antagonizes gsp, the McCune-Albright syndrome mutation. 340,000 tested, 0.4% active. gsp-mutant cells, cAMP HTRF, 30 min; control for the full effect not named in the record. Potency, µM (doses to about 76.9 µM), without a hit: at the top dose activity change, negative = inhibition, actives largely listed as inhibitors. AID 624288; active = falling curve of any shape with a large fitted effect; inconclusive = falling curve, mostly with a smaller effect; inactive = flat or rising curve; cell line not stated here;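 note: intracellular cAMP measured with PDE inhibitor Ro 20-1724 present during compound exposure; potency is the fitted concentration of half-maximal effect; % is set by controls: 0 for no effect and ±100 for the full control effect; nearly all actives have a fitted effect of over 65% in size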
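HTRF cAMP read-out (cAMP-d2 plus anti-cAMP antibody-K in lysis buffer, 30 min RT). Before lysis, cells are exposed to compounds with […] for 30 min at 37C in DPBS containing Ca/Mg, BSA and Tween 20.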
Sfp inh: Sfp phosphopantetheinyl transferase inhibition | Q9F4F7 | Biochemical Sfp PPTase activity, qHTS | Potency, µM, for inactives: max response, negative = inhibition, most hits filed as inhibitors | 310,000 tested, 3.5% active | AID 1490; active = well fitted inhibition curve with a large enough effect; inconclusive = small, poorly fitted or top-dose-only effect, or another doubt; inactive = no such curve, though single readings can be large or run the other way;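 note: the enzyme is Sfp with the accession as filed and its product quenches rhodamine fluorescence; potency is the fitted concentration of half-maximal effect; 0% = enzyme reaction without inhibitor and -100% = no enzyme wells; top concentration of the series not given in the record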
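Buffer: 50 mM Hepes-Na pH 7.6, 10 mM MgCl2, 0.01% Nonidet P-40, 0.01% BSA. Enzyme 15 nM, pre-exposed to compound 15 min; substrates then added and fluorescence change tracked over 30 min.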
D2 potentiator: positive allosteric modulators of human D2 dopamine receptor; AID 624464; P14416; potentiation, % (no concentration beside the values); 360,000 tested, 0.23% active; DiscoveRx D2 beta-arrestin cells, luminescence, 90 min; 100% = 57 uM dopamine signal; active = potentiation of 50% or more; inconclusive = 30% to 50%; inactive = 30% or less;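 note: compound concentration not given in the record; tested on top of an EC20 dose of dopamine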
Target sequence (P14416 whole entry, looked up): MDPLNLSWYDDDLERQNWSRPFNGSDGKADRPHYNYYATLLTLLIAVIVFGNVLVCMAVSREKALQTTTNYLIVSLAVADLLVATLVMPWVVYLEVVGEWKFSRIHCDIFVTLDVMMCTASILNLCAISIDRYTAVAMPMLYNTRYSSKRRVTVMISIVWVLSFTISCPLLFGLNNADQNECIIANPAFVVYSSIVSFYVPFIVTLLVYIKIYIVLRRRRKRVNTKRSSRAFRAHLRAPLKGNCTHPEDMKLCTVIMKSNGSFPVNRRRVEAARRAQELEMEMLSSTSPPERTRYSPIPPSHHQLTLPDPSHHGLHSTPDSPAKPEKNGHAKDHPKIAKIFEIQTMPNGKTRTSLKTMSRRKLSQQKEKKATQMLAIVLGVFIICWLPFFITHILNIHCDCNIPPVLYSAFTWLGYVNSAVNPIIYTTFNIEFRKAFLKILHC
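D2 cells co-treated with compound plus 50 nM dopamine (EC20) for 90 min at 37 deg C to detect potentiation. Beta-arrestin recruitment was read as enzyme-fragment luminescence after 1 h at ambient temperature. Full response was set by 57 uM dopamine.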
Numbers without * were called inactive; ? = inconclusive; · = no result given; & = joins results of further samples; [ ] = another dose, or the depositor's remark.

SMILES	TRPV1 potentiator	gsp ag	ClpP mod	Menin MLL FP FL	gsp antag	Sfp inh	D2 potentiator
Cc1ccc(N2CC(C(=O)Nc3cccnc3)CC2=O)cc1Cl (stereo not given)	1	13%[15.4 µM]	·	·	3%	-4%	-14
O=C(NCC(=O)N1CCC(N2CCCCC2)CC1)C1CCCCC1	20	-2%	0.0%	2.3	11%	12%	-1
CCN(C(=O)c1cc2c(=O)n3ccccc3nc2n1CCCOC)C1CCCCC1	3	?	4.2%	·	-13%	-1%	-1
Cc1ccc(S(=O)(=O)N2CCCOC2CNC(=O)C(=O)NCCN2CCOCC2)cc1 (stereo not given)	6	-88%[inhibitor]	-4.7%	-7.5	8%	-7%	-9
O=C(/C=C/NNC(=O)c1ccc(Br)cc1)c1ccccc1	20	-34%[inhibitor]	0.5%	?	-7%	16%	-25
COc1ccc2nc(NC(=O)C3CC(=O)N(c4ccccc4)C3)sc2c1 (stereo not given)	?	7%[15.4 µM]	·	-6.9	-4%	-14%	-7
O=C(O)Cn1ccc2cc(S(=O)(=O)N3CCCCCC3)ccc21	0	-29%	-3.9%&-3.9%	·	3%	16%	-3
O=S(=O)(NCCCCCNS(=O)(=O)c1ccc(F)cc1)c1ccc(F)cc1	3	-6%	-0.1%	-0.8	-13%	12%	18
CC1CCN(CC(CS(=O)(=O)c2ccc([N+](=O)[O-])cc2)N2CCC(C)CC2)CC1 (stereo not given)	8	?	0.6%	1.9	4%	0%	-8
O=C(c1cccc2c1C(=O)N(Cc1cccnc1)C2)N1CCN(c2ccccc2)CC1	0	-56%[inhibitor]	-0.1%	1.1	-21%	-1%	-10
CC(C(=O)Nc1ccc(F)c(F)c1)N1CCN(C)CC1 (stereo not given)	-11	10%[15.4 µM]	-1.5%	0.1	10%	?	-11
FC(F)(F)c1cccc(-c2noc(CN3CCOCC3)n2)c1	-10	-24%	0.6%	-0.3	32%	6%	-30
CCCCNS(=O)(=O)c1ccc2nc(SCC(=O)c3ccccc3OC)[nH]c2c1	-2	-1%	-1.2%	-0.8	-23%	15%	-4
Cc1nnc(SCC(=O)Nc2ccccc2C(=O)NC2CC2)s1	6	-13%[15.4 µM]	1.4%	7.9	18%	-1%	-4
Cc1nc(N/N=C/c2ccc(O)cc2)c2cnn(-c3ccccc3)c2n1	14	-21%	-29%	-4.5	6%	4%	-12
Cc1ccc(Cn2cnc3c(cnn3-c3ccc(F)cc3)c2=O)cc1	-4	-20%	-0.8%	3.2	9%	-21%	-7
CN(CCC#N)C(=O)COC(=O)/C=C/c1ccc2c(c1)OCO2	11	-1%	·	-1.6	2%	-5%	-2
CCc1ccc(NC(=O)c2ccccc2NC(=O)C2CCCO2)cc1 (stereo not given)	-22	-15%	-4.7%	3.6	-21%	0%	-6
O=C(O)CC1(O)C(=O)N(Cc2ccccc2)c2ccccc21 (stereo not given)	4	8%[15.4 µM]	·	-1.9	4%	8%	3
CCOc1ccc(NS(=O)(=O)c2ccc(OCC(=O)NCCCOC)cc2)cc1	?	6%	-0.6%	2.9	-10%	11%	-3
O=C(Oc1c(CN2CCOCC2)cc(Cl)c2cccnc12)c1ccccc1F	1	16%[15.4 µM]	·	-0.1	-13%	13%	-30
CCN1C(=NCCc2ccccn2)N[C@@H](c2cccc(C(F)(F)F)c2)C(C(=O)OC)=C1C	-1	?	-1.3%&-1.2%	1.0	11%	-6%	-20
C=CCNc1nc2c(c(=O)n(C)c(=O)n2C)n1CC	0	?	-1.7%	-2.0	16%	-7%	-1
Cc1ccnc2nc(C(=O)OCC(=O)NCc3cccc(Cl)c3)nn12	-4	-4%	1.1%	·	1%	·	-1
Cc1cccc(C(=O)O/N=C2\CCS(=O)(=O)c3sccc32)c1	-30	2%	-1.5%	2.5	-8%	13%	4
COc1ccc(/C=N/NC(=O)CN2CCSCC2)cc1C	-3	0%	-3.1%	·	7%	-26%	-13
CC1CCN(C(=O)c2ccc3c(c2NCCO)C(=O)c2ccccc2C3=O)CC1	6	13%	3.2%	-0.6	-2%	-16%	-8
OCCNc1nc(N2CCCCC2)nc2ccccc12	0	-46%[inhibitor]	·	1.0	15%	7%	-10
COc1cccc(NC(=O)COc2nc3ccccc3nc2C)c1	12	10%[15.4 µM]	-9.4%	4.1	-8%	11%	-15
COc1ccc(-c2n[nH]c(=S)n2-c2ccc(Br)cc2)cc1OC	-4	-6%	0.3%	-0.8	-18%	-1%	-1
Cc1ccccc1S(=O)(=O)Cc1ccc(C(=O)NC2CCC(C)CC2)o1 (stereo not given)	2	2%	-1.7%&-0.1%	-0.5	4%	1%	-2
Cn1c(N2CCCC2)nc2c1c(=O)n(Cc1cccc(F)c1)c(=O)n2C	6	9%	-4.0%	0.3	8%	?	-6
O=C(CN1CCSCC1)N1CCc2[nH]c3ccc(Br)cc3c2C1	2	·	·	-0.8	·	1%	·
Cc1nc2c(C)cccn2c(=O)c1NC(=O)c1ccco1	19	-1%[15.4 µM]	-0.4%	·	8%	·	-14
O=C(CCCN1C(=O)c2ccccc2C1=O)Oc1ccc(Cl)cc1	28	-14%	1.6%	0.2	-15%	-6%	-1
COc1ccc(-c2nnc(SCC(=O)NC3CCCCC3)o2)cc1OC	-3	-6%	1.0%	3.6	4%	1%	-3

Part of the list above in another layout.
Every second line gives: TRPV1 potentiator	gsp ag	ClpP mod	Menin MLL FP FL	gsp antag	Sfp inh	D2 potentiator
Cc1ccc(N2CC(C(=O)Nc3cccnc3)CC2=O)cc1Cl (stereo not given)
    1	13%[15.4 µM]	·	·	3%	-4%	-14
O=C(O)Cn1ccc2cc(S(=O)(=O)N3CCCCCC3)ccc21
    0	-29%	-3.9%&-3.9%	·	3%	16%	-3

Going on with the list.
SMILES	TRPV1 potentiator	gsp ag	ClpP mod	Menin MLL FP FL	gsp antag	Sfp inh	D2 potentiator
Cc1ccc(-c2cc(C(=O)O)c3cc(Br)ccc3n2)s1	-12&2	?	4.4%&0.3%	-1.6&2.9	-3%&-18%	-8%	22&-16
O=c1/c(=C\c2cc([N+](=O)[O-])cc([N+](=O)[O-])c2O)sc2nc3ccccc3n12	0	0%[15.4 µM]	0.3%	?	-18%	22µM*	20
NS(=O)(=O)c1ccc(N2CCOCC2)c(C(=O)NCc2cccs2)c1	·	-27%	?	·	-1%	·	-9
NC(=O)C1(N2CCCCC2)CCN(CC(=O)Nc2ccccc2Sc2ccccc2)CC1	-8	0%	0.0%	2.9	-13%	6%	-13
C(=C\c1ccccc1)/C=N/Nc1nc2ccccc2s1	23	-22%	-6.4%	3.7	-6%	-8%	6
O=C(COC(=O)/C=C/c1ccc(Cl)cc1)NCc1cccs1	·	-43%[inhibitor]	-5.7%	·	·	·	-15
CC(=O)N1c2ccc(S(=O)(=O)N3CCC(C(=O)N4CC(C)CC(C)C4)CC3)cc2CC1C (stereo not given)	-4	-33%[inhibitor]	-1.4%	-1.0	?	8%	-2
O=C(COC(=O)Cc1ccc([N+](=O)[O-])cc1)NC1CCCCCC1	·	-20%	2.5%	·	2%	·	-3
COc1ccc(NC(=O)NCCN2CCCCC2)cc1	1	-1%	1.3%	-5.4	6%	26%	-21
COc1ccc(C=O)cc1Cn1ccnc1C	-8	-4%[15.4 µM]	·	-1.1	·	13%	13
CCCCC(=O)NC(=S)Nc1cccc(NC(=O)c2ccccc2)c1	3	-29%[15.4 µM]	·	-1.8	4%	7%	-8
CC(C)n1nnnc1SCC(=O)Nc1ccc2c(c1)OCCO2	1	·	·	-1.8	·	12%	·
O=C(C(Cc1ccccc1)n1cccc1)N1CCN(c2ccccc2)CC1 (stereo not given)	5	-88%[inhibitor]	-0.4%	-2.1	-25%	8%	1
COCCOC(=O)C1=C(C)N=C2SCCC(=O)N2C1c1cccc(Br)c1 (stereo not given)	5	?	0.1%	2.3	-8%	13%	-11
COc1ccccc1-c1nnc(NC(=O)c2ccc3c(c2)OCO3)s1	-6	-10%[15.4 µM]	·	2.1	·	3%	0
CC(C)OC(=O)C1CC=CCC1C(=O)Nc1ccc(Cl)cc1 (stereo not given)	3	24%	0.2%	-1.6	-9%	13%	-14
COCCn1nnnc1C(CC(C)C)N1CCN(c2nc3ccccc3s2)CC1 (stereo not given)	-2	2%	·	-5.2	17%	7%	1
COCCn1c(SCC(=O)Nc2cc(C(C)(C)C)nn2-c2ccccc2)nnc1-c1ccncc1	6	2%	-2.0%	0.6	-3%	8%	-4
Cc1ccc(C(=O)N(C)Cc2nc3ccccc3c(=O)[nH]2)cc1NC(=O)c1ccco1	·	3%	·	·	1%	·	-3
COc1ccc(CCNC(=O)Cc2cc3c(cc2[N+](=O)[O-])OCO3)cc1OC	·	5%	2.0%	·	10%	·	-2
O=C(CSc1nnnn1-c1ccc(F)cc1)Nc1ccc(N2CCOCC2)c(Cl)c1	4	8%	-0.1%	-1.8	-16%	-1%	-4
COCc1cccc(C2=CC(=O)C[C@H](c3ccc(F)cc3)C2)c1	4	-30%	2.7%	·	-19%	·	-4
N#CC1=C(N)SC(N)=C(C#N)C1c1c(Cl)cccc1Cl	6	26%	-7.7%	?	-18%	7.1µM*	8
Cc1ccc(S(=O)(=O)/N=C(/Nc2ccccn2)c2ccc(Cl)cc2)cc1	24	-18%	2.0%	0.4	-27%	-17%	-20
Cc1nc(C)c(C(=O)Nc2ncc([N+](=O)[O-])s2)o1	19	-1%[15.4 µM]	·	6.9	?	-79%	-9
Cc1ccc(NC(=S)NN2CCOCC2)c(C)c1	1	9%	-2.4%	-0.1	6%	8%	-16
Cc1nc(SCC(=O)NC2CCCC2)[nH]c(=O)c1C	3	27%	·	2.1	5%	12%	-4
Cc1nn(-c2ccccc2)c(OC(=O)c2cccs2)c1S(=O)(=O)c1ccccc1	2	-23%	2.9%	1.1	-1%	14%	-2
CN(C(=O)COC(=O)c1cccc(Cl)c1)C1CCS(=O)(=O)C1 (stereo not given)	-15	-15%	0.6%	·	5%	·	-4
COc1ccc2c(c1)N(C[C@H](C)CN(C)C)c1ccccc1S2	·	·	-5.9%	·	3%	·	-20
O=C(N/N=C/c1c(Cl)[nH]c2ccccc12)c1ccc2c(c1)OCCO2	6	26%[15.4 µM]	·	0.8	?	1%	-10
Cc1oc2c(CN3CCOCC3)c(O)ccc2c(=O)c1-c1ccc(Br)cc1	-6	10%	14µM*	5.8	-7%	9%	-22
